GIV Gai3 FP: inhibitors of GIV peptide binding to Galpha-i3, primary screen, biochemical, fluorescence polarization, FITC-GIV GBA peptide, rat Galphai3 | Guanine nucleotide-binding protein G(i) subunit alpha-3 (Rattus norvegicus), P08753 | 90 min; active compounds read low; scaled: aluminum fluoride 0%, vehicle 100% | percent of control (FP), % (concentration not given with the values) | actives 0.42% (n = 210,000) | AID 1224905, 2016;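 active = replicate mean at 85% of control or lower, very high polarization wells dropped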;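 note: wells of about 15 µL received 100 nL stock; the first replicate is given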
Target sequence (P08753 whole entry, looked up): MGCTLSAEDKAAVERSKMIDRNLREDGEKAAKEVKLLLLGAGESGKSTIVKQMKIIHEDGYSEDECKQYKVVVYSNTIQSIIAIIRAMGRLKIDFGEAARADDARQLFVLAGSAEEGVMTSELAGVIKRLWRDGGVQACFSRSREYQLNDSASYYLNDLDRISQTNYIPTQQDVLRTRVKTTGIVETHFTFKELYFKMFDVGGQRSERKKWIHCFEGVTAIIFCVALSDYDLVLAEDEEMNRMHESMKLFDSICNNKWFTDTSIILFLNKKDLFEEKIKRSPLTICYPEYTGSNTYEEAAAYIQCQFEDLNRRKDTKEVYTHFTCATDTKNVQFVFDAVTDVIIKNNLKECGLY
HCMV UL50-53 inh: inhibitors of HCMV UL50-UL53 interaction, biochemical, HTRF; normalized percent inhibition; actives 0.15% (n = 190,000); HCMV UL50-UL53 nuclear egress complex (human cytomegalovirus); inhibition, % (test concentration not listed);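 active = both replicates at 50% or more, plus weaker picks with an unusually low signal ratio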;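 note: stock transfer was 100 nL into about 20 µL; 0% = negative control wells and 100% = wells with untagged competitor protein; inactives centre near -12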
Sa growth inh: S. aureus growth inhibition at 42 and 30 °C, primary screen, LtaS inhibitor project, RN4220, two temperatures | OD600, 20 h, 42 °C; active compounds read low | relative growth, % (test concentration not listed) | actives 0.53% (n = 170,000) | AID 720641, 2013;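 active = growth at 42 °C up to 50% and 20 or more points under that at 30 °C, or under 10% at both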;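 note: 300 nL library stock went into each well; scaled to the means of positive and negative controls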
Sa growth inh second temp: also measured in Sa growth inh; calls as there; relative growth, %; measured here: growth at 30 °C;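 optical density after 20 h as mean of two plates; 100% = untreated growth and lower means inhibition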
Starred values were filed as active, the others as inactive; / = not tested or not shown; & = joins results of further samples.

The first 6 entries (preview)
Molecule,GIV Gai3 FP,HCMV UL50-53 inh,Sa growth inh,Sa growth inh second temp
CCCSc1nc2c(c(=O)[nH]c(=O)n2C)n1C(C)C,106,0,94,100
C=CC(C)(O)CC1C(C)(O)CCC2C(C)(C)CCCC21C (stereo unspecified),95,-11,78,100
CC(C)=NNc1nc(-c2ccccc2)cs1,117,-27,80,51
Nc1cc(=O)[nH]c2ncnn12,107,-34,97,78
Cc1ccc(-c2noc(CSc3nc4c(-c5ccccc5)c[nH]c4c(=O)[nH]3)n2)cc1,100,-26,/,/
Cc1ccc(-n2c(=O)[nH]cc(C(=O)Nc3ccc(S(N)(=O)=O)cc3)c2=O)cc1C,103&101,-23&-7,92,81

All compounds of this part, from the first entry:
Molecule,GIV Gai3 FP,HCMV UL50-53 inh,Sa growth inh,Sa growth inh second temp
CCCSc1nc2c(c(=O)[nH]c(=O)n2C)n1C(C)C,106,0,94,100
C=CC(C)(O)CC1C(C)(O)CCC2C(C)(C)CCCC21C (stereo unspecified),95,-11,78,100
CC(C)=NNc1nc(-c2ccccc2)cs1,117,-27,80,51
Nc1cc(=O)[nH]c2ncnn12,107,-34,97,78
Cc1ccc(-c2noc(CSc3nc4c(-c5ccccc5)c[nH]c4c(=O)[nH]3)n2)cc1,100,-26,/,/
Cc1ccc(-n2c(=O)[nH]cc(C(=O)Nc3ccc(S(N)(=O)=O)cc3)c2=O)cc1C,103&101,-23&-7,92,81
N#CCn1c(CSc2ncnc3sccc23)nc2ccccc2c1=O,/,-31,105,96
CCOc1ccc2c(c1)NC(c1ccc(N(C)C)cc1)=NC(c1ccc(F)cc1)=N2,101,-3,/,/
Cc1cccc(OCC(=O)Nc2ccc3oc(-c4ccccc4F)nc3c2)c1,98,-21,104,81
O=C(NCCCc1ccccc1)c1cnc2ccccn2c1=O,105,/,104,82
COc1ccc(OCC(=O)Nc2cc(-c3cccc(Cl)c3)nn2-c2ccccc2)cc1,105,/,104,76
O=C(NCc1ccncc1)c1cc(-c2ccc(F)cc2)nc2ccccc12,/,-38,65,86
CCOc1ccc2nc(SCC(=O)c3cccs3)sc2c1,/,-8,129,111
Cc1noc(/C=C/c2ccccc2F)c1S(=O)(=O)N1CCC(C(=O)NC2CCCCCC2)CC1,102,-13,110,94
Cc1ccc(-n2cccc2)c(O)c1,104,-4,120,68
Cc1ccccc1CCNC(=O)c1ccc2c(c1)nc1n2CCC(C)C1 (stereo unspecified),103,/,101,92
Cc1cccc(C)c1OCC(O)Cn1c(C2CC2)nc2ccccc21 (stereo unspecified),106,-20,/,/
CCc1ccc(N2C(N)=C(C#N)C(c3cccc(Cl)c3)c3c(C)noc32)cc1 (stereo unspecified),/,-8,73,48
O=S(=O)(c1ccc(Cl)cc1)N1CCNCC1,/,-22,75,86
O=CN(c1ccccc1)c1ccccc1,100,-5,107,99
CCOC(=O)c1cc(-c2ccccc2)n(CCC(=O)NC2CCCCC2)c1C,94,/,83,93
CCC(=O)NCC[C@@H]1CCc2ccc3c(c21)CCO3,/,-56,84,88
CCOc1ccc(S(=O)(=O)N2CCOCC2)cc1-c1nc(C(C)C)no1,103,-8,/,/
Nc1[nH]nc(Nc2cccc(Cl)c2Cl)c1C(=O)c1cccs1,109,3,118,90
CCOC(=O)c1sc(N)c(C#N)c1CSc1nnc2ccccn12,/,-33,93,92
Cc1ccc(C2CCCN2S(=O)(=O)c2cccc3nsnc23)cc1 (stereo unspecified),103,-82,/,/
COc1ccc(-c2nc3ccccc3n3c(-c4cccc(C)c4)c4c(=O)n(C)c(=O)n(C)c4c23)cc1OC,98,-31,98,90
O=C(C1CCN(S(=O)(=O)c2cccs2)CC1)N1CCCC1c1nc2ccccc2s1 (stereo unspecified),/,3,128,94
O=C(O)/C=C/c1cn(-c2ccccc2)nc1-c1ccccc1,/,-13,84,90
CC(=O)c1ccc(N2C(=O)N(CC(=O)c3ccc(C)cc3)c3ccccc3S2(=O)=O)cc1,102,/,93,112
COc1ccc(Cl)cc1C(=O)Nc1c2c(nn1-c1ccc(Cl)cc1)CS(=O)(=O)C2,101,/,104,94
Cc1cc(NC(=O)c2cccnc2)cc(-c2nc3cc(Cl)ccc3o2)c1O,102,16,99,104
Cc1cc2ccccc2n1CCNC(=O)Cc1cccc2ccccc12,97,/,98,97
Cc1ccc(N)c(C(NCC(=O)NN)c2ccccc2)c1 (stereo unspecified),/,-29,106,92
O=C1CC(c2ccc(F)cc2)CC(O)=C1C=NCCN1CCN(C(=S)Nc2ccccc2)CC1 (stereo unspecified),97,/,100,84
COCCN1C(=O)c2ccccc2N2C(=O)CCC12C(=O)Nc1ccc(C)cc1 (stereo unspecified),/,-4,98,94
CCOc1ccc(S(=O)(=O)Nc2cc(C(C)(C)C)nn2-c2ccccc2)cc1,/,3,117,91
Cc1nc(-c2ccccc2)sc1CCNC(=O)C(=O)Nc1ccc(F)c(Cl)c1,102,/,100,83
Cc1ccc(C)c(NC(=O)CCn2nc(C)c3c(C)n(-c4ccccc4)nc3c2=O)c1,96,/,99,95
C=CCn1cnnc1SCC(=O)c1cc(C)n(CC(F)(F)F)c1C,/,20,121,100
O=C(CC1N=C2c3ccccc3N=C(SCC(=O)c3ccccc3)N2C1=O)NCCc1ccccc1 (stereo unspecified),98,/,87,79
Cc1ccc(CN2CCC(C(=O)NC(C)C)CC2)cc1,/,-1,118,95
COc1ccc(NC(=O)CSc2nc(C)cc(C(F)(F)F)c2C#N)cc1,99,-12,/,/
COc1ccc(NC(=O)c2nn(C)c3c2CSc2ccccc2-3)cc1OC,104,-24,/,/
CC(C)CN(CC(C)C)C(=O)CSc1nc2ccccc2[nH]1,99,-24,76,70
O=C1c2ccccc2S(=O)(=O)N1CC1CC(c2ccccc2)=NO1 (stereo unspecified),100,/,86,80
CC(=O)N1C(=O)/C(=C(\C#N)C(=O)NCCc2ccccc2)c2ccccc21,/,-26,85,92
Cc1nnc2sc(-c3cccc(NC(=O)c4cccc(F)c4)c3)nn12,105,-27,99,87
Cc1nn(C)c2c1c(C(F)(F)F)cc(=O)n2C(C)C(=O)Nc1ccccc1F (stereo unspecified),101,/,86,93
Cc1cccc(NC(=O)c2ccco2)c1C(=O)O,100,-7,102,92
CCCn1c(=O)n(CCC)c2c(C)cc(C)cc21,/,6,113,91
CCn1ccc2cc(S(=O)(=O)N3CCCC(C(=O)NCCc4c(C)noc4C)C3)ccc21 (stereo unspecified),101,-15,/,/
COC(=O)c1c(NC(=O)/C(C#N)=C/c2ccccc2)sc2c1C(C(=O)OC)CC2 (stereo unspecified),109,-24,102,88
Cc1ccc(/C=C/c2onc(C)c2S(=O)(=O)N2CCC(C(=O)NCc3ccc(OC(C)C)cc3)CC2)cc1,105,/,92,95
Cn1nnnc1SCCCNCc1cccc(OCc2ccccc2Cl)c1,106,-4,105,66
COc1ccc(C(=O)n2nc(-c3ccco3)nc2NCc2cccs2)cc1,105,-12,106,87
O=S(=O)(c1ccc(O)cc1)c1ccc(Cl)cc1,/,12,85,88
CCCN1C(=O)C2C(c3ccc(O)cc3)NN(Cc3ccccc3)C2C1=O (stereo unspecified),119,-22,81,61
CCC(C)N(C(=O)CSc1ccc2c(c1)OCCO2)C1CCS(=O)(=O)C1 (stereo unspecified),/,3,100,96
COC(=O)c1c(NC(=O)C2=Cc3ccccc3OC=C2)sc(C)c1C,97,-4,/,/

Additional entries:
Molecule,GIV Gai3 FP,HCMV UL50-53 inh,Sa growth inh,Sa growth inh second temp
Cc1cc(SCC(=O)Nc2ncc(Cl)cc2Cl)nc2ccccc12,/,-13,112,84
Cc1cc2nc(-c3cccc(NC(=O)c4ccc5c(c4)OCCO5)c3C)oc2cc1C,106,2,/,/
CCOC(=O)c1cnc2c(-c3ccccc3)c(COc3ccccc3)nn2c1N,98,-13,/,/
O=C(Cc1cn2ccsc2n1)NC12CC3CC(CC(C3)C1)C2,/,-24,74,97
COc1cc(C)c2c(=O)c(-c3nc(C)cs3)coc2c1,114,-21,112,97
COc1ccc(-c2c(C)nn3c(NCCN4CCCC4)cc(C)nc23)cc1OC,104,1,76,85
Cc1oc2ncnc(N3CCCCC3)c2c1C(=O)Nc1cccc(Cl)c1,99,-6,/,/
O=S(=O)(c1ccc(Cl)cc1)n1nc(-c2cccnc2)nc1NCc1ccc(F)cc1,107,-15,/,/
COC(=O)Cn1c(C)nc(=O)c(-c2ccccc2)c1C,102,-19,112,88
Cc1ccc2c(c1)N(CC(N)=O)C(=O)CO2,97,-38,95,98
CNC(=O)CCCN1C(=O)c2ccccc2C1=O,97,-22,111,98
Cc1csc(NC(=O)Cc2csc(-n3nc(C)c(Cl)c3C)n2)n1,109,0,/,/
CCc1ccc(NC(=O)N2CC(C)CC(C)C2)cc1 (stereo unspecified),104,-33,110,79
COc1ccc2nc(C)c3c(c2c1)OC(C)C3 (stereo unspecified),/,10,92,95
Cc1cccc(NC(=O)CS(=O)(=O)c2cccc3nsnc23)c1,102,/,101,81
CC(=O)N1CCCSc2ccc(S(=O)(=O)N3CCCc4ccccc43)cc21,97,-23,/,/
Cc1nc2c(-c3ccccc3)c(C)nn2c(C)c1CCC(=O)NCc1ccccc1,102,-38,99,96
Cc1nc(-c2ccc(F)cc2)sc1CCNS(=O)(=O)c1cccc(Cl)c1,102,-14,/,/
CCCn1ccc2c(OCC(=O)c3ccccc3)cccc2c1=O,102,-39,98,85
CCCn1cnc2c3nsnc3ccc21,105,-82,/,/
COc1ccc(-c2csc(-c3ccc(O)cc3)n2)cc1,/,7,113,103
CC(C)c1cc(NC2CCCCC2)n2nc(-c3cccnc3)nc2n1,101,0,/,/
CCC1(C)NC(=O)N(Nc2ncnc3sc4c(c23)CCC4)C1=O (stereo unspecified),/,-32,98,97
Cc1noc(C)c1CSc1ncccc1C(=O)N(C)c1ccc2ccccc2c1,/,-25,110,82
CCOc1ccc(N(CC)S(=O)(=O)N2CCCC(C(=O)Nc3cc(Cl)ccc3OC)C2)cc1 (stereo unspecified),103,/,81,79
C=CCOc1ccccc1C1CC(=O)Nc2c1c(C)nn2-c1ccc2nncn2n1 (stereo unspecified),99,-39,/,/
CCc1nc(-c2cc(S(=O)(=O)N3CC=C(c4ccccc4)CC3)c(C)s2)no1,108,-29,/,/
FC(F)(F)c1cc(C(F)(F)F)c2ccc3nnnn3c2n1,108,-119,/,/
CCOc1ccc(NC(=O)c2c(Nc3ccccc3C)sc(C(=O)c3ccc(Cl)cc3)c2N)cc1,109,/,120,99
Cc1ccc(C)c(SCC(=O)C(C#N)c2nc(C)cs2)c1 (stereo unspecified),/,-20,68,28
O=C(O)c1cc(N2C(=O)C3C4c5ccccc5C(c5ccccc54)C3C2=O)ccc1N1CCOCC1 (stereo unspecified),108,-8,113,73
CCOCCc1nn2c(=O)cc(COC(=O)c3ccccc3NC(=O)c3cccs3)nc2s1,101,/,82,86
O=C(NCCc1ccccc1)C(C(=O)c1ccccc1)n1ccccc1=O (stereo unspecified),/,1,112,93
COc1ccc(NC(=O)CSc2nnc(-c3cccnc3)o2)c(OC)c1,97,-27,/,/
CC1=C(C(=O)Nc2ccc(Cl)cn2)C2(CCCCCC2)OC1=O,101,-24,86,72
CC(NS(=O)(=O)c1cccc2nsnc12)C(=O)OCc1cccc(C(F)(F)F)c1 (stereo unspecified),/,-26,123,94
CC(C)c1ccc(C2c3c(oc4ccc(Cl)cc4c3=O)C(=O)N2CCCN2CCOCC2)cc1 (stereo unspecified),102,-20,94,90
CCc1ccc(NC(=O)CCc2c(C)nn(-c3ccc(N4CCCC4)nn3)c2C)cc1,98,/,94,90
O=C(Oc1ccccc1Cl)C1=CC=CN2CCS(=O)(=O)N=C12,/,-9,105,92
Cn1c(Sc2ncc(C#N)c(N)n2)nnc1-c1ccncc1,107,-10,96,93
COc1cccc(CNC(=O)c2ccc(-n3c(C)cc4c3CCC(C)C4)cc2)c1 (stereo unspecified),104,/,105,89
CC/C(=C/c1ccccc1)CN1CCCCC1,/,-6,126,95
COC(=O)c1cn(CC(=O)OCc2ccc(-n3nc(C)cc3C)cc2)c2ccccc12,/,-17,88,97
COC(=O)N/N=C(\C)c1ccccc1OC,/,-3,92,92
COc1ccccc1/C=C/C(=O)OCCN1CCCC1=O,/,-54,102,80
O=C(CC1Nc2c3ccccc3nc(=S)n2C1=O)NCc1cccc(Cl)c1 (stereo unspecified),111,12,94,97
Cc1nn(Cc2ccccc2Cl)c2sc(C(=O)Nc3sccc3C(N)=O)cc12,/,-4,86,69

Screens deposited in PubChem by ICCB-Longwood Screening Facility, Harvard Medical School.

Not a hit list; overall some 0.79% were active at least once.
